HPGD inh: qHTS Assay for Inhibitors of HPGD (15-Hydroxyprostaglandin Dehydrogenase); Potency, µM, without a hit: at the top dose activity change, negative = inhibition, most hits filed as inhibitors; actives 4.3% (n = 150,000); purified HPGD, NADH fluorescence kinetic, PGE2 substrate; 15-hydroxyprostaglandin dehydrogenase [NAD(+)] (Homo sapiens), P15428; active = well fitted inhibition curve with a large enough effect (not every such curve was filed as active); inconclusive = small, poorly fitted or top-dose-only effect, or another doubt; inactive = no such curve, though single readings can be large or run the other way;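 also: top concentration of the series not given in the record; plate controls included wells without enzyme; inactives centre near -10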
Target sequence (P15428 whole entry, looked up): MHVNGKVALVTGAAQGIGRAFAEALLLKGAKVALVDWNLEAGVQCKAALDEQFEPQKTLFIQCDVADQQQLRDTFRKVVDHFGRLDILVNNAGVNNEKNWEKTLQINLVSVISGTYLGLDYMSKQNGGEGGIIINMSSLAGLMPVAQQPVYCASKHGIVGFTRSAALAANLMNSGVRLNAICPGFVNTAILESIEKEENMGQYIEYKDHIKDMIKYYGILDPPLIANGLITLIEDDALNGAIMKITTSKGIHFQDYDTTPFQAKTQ
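NADH formation kinetics: reaction with 30 uM PGE2 and 1 mM NAD+ (final), 20 nM enzyme, Tris-HCl pH 8 with Tween 20, after 15 min compound preincubation at room temperature. Fluorescence change, last versus first of five reads.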
The depositor's hits bear a star; ? = inconclusive. % is scaled to controls: 0 for no effect and ±100 for the full control effect; potency is read from the fitted curve at half-maximal effect. An excerpt, so the mix of outcomes need not match the whole.

SMILES	HPGD inh
CCOc1ccc2cc(/C=C/C(=O)c3ccco3)c(Cl)nc2c1	-11%
O=C(COc1ccc2ccccc2c1)NC1CC1	32µM*
CCOc1ccc(S(=O)(=O)N2CCN(Cc3ccccc3)CC2)c2cccnc12	-3%
Cc1cc(C)n(CC2CC(=O)N(c3ccc(F)c(Cl)c3)C2=O)n1 (stereo unspecified)	-15%
Cc1cc(Cl)c(S(=O)(=O)Nc2ccc(Cl)cn2)cc1OCC(N)=O	-7%
Cn1cc(S(=O)(=O)Nc2ccc(F)cc2F)c(=O)n(C)c1=O	2%
CCOC(=O)N1CCC(NC(=O)c2cc(C)c3c(C)nn(-c4ccccc4)c3n2)CC1	?
O=C(NN=C1CCCCC1)c1cc(-c2ccccc2)n[nH]1	-12%
CCc1nnc(NC(=O)CCC(=O)N2CCN(c3ccccn3)CC2)s1	?
CCOC(=O)c1c(NS(=O)(=O)c2cccc(OC)c2)sc2c1CCC2	35µM*
O=C(c1cc(F)c(F)cc1Cl)N1CCN(c2ccc([N+](=O)[O-])c3ncccc23)CC1	-16%
O=C(NC12CC3CC(CC(C3)C1)C2)C1=COCCO1	0%
CC(C)NCC(O)COc1c(F)cc(Br)cc1F (stereo unspecified)	3%
c1ccc2c(c1)CC1(CCCCC1)n1nnnc1-2	-3%
CCOC(=O)N1C2=NC(C(=O)OC)=C(C(=O)OC)[C@@H]3N(Cc4ccccc4)c4ccccc4[C@]23C[C@H]1C(=O)OC	-7%
CCC(=O)NC1(C(F)(F)F)C(=O)NC(C)=C1C#N (stereo unspecified)	-10%
Cc1ccc(NC(=O)CS(=O)CC(=O)N(C2CCCC2)C(C)C(=O)NC2CCCCC2)cc1 (stereo unspecified)	-13%
CC1CCC(n2c(=S)[nH]c3ccccc3c2=O)CC1 (stereo unspecified)	-12%
COc1ccc(C)cc1S(=O)(=O)N(CC(=O)Nc1ccc2c(c1)OCCO2)Cc1ccccc1	-9%
Cc1ccc(CO/N=C/C2=C(Cl)c3ccccc3CC2)cc1	-13%
CSc1cc(C)nc(NC(C)=O)n1	-10%
Cc1nn(C)c(C)c1CN(C)C(=O)CCCC(=O)O	-12%
O=C1NC(=S)S/C1=C/c1ccc(N2CCOCC2)o1	7.9µM*
CCOC(=O)Cc1c(C)[nH]c(=S)[nH]c1=O	-7%
CCC1=C(OC(=O)N(CC)CC)N2C(=O)OC(=NCC3CC3)[C@]2(Cc2ccccc2)[C@H]2C1=CC[C@H]1C(=O)NC(=O)[C@H]12	-8%
CN1C2CCC1/C(=C\c1ccccc1F)C(=O)/C2=C/c1ccccc1F	0%
CS(=O)(=O)N1CCC(C(=O)Nc2ccc(Oc3ccccc3)cc2)CC1	-19%
CCOC(=O)C1=C(C)N=c2s/c(=C3\C(=O)Nc4ccccc43)c(=O)n2C1c1ccc2c(c1)OCO2 (stereo unspecified)	?
Cc1ccc(-c2nc3cccnc3o2)cc1NC(=O)COc1ccc(C(C)(C)C)cc1	?
Cc1ccnc2nc(C(=O)OCC(=O)Nc3ccc4c(c3)OC(F)(F)O4)nn12	-6%
O=C(CCCOc1ccc(Cl)cc1)Nc1nncs1	-9%
COC(=O)C1=C(C)N(C2CCCCC2)C(=O)C1	2%
COc1cc2c(cc1OC)C1=C(C#N)CN(C3CCCCC3)CN1CC2	?
COc1ccc(S(=O)(=O)Nc2nc3ccccc3s2)cc1	-12%
C=CCNCCOCCOc1ccc(C)cc1[N+](=O)[O-]	0%
Nc1nc(CN2CCN(c3ccccc3F)CC2)nc(Nc2ccc3c(c2)OCCO3)n1	-4%
COc1ccc(NC(=O)CN2CCCN(S(=O)(=O)c3ccc(F)cc3)CC2)cc1	-6%
O=C(O)c1sccc1S(=O)(=O)Nc1ccc(Cl)cc1	-10%
Cc1nnc(SCC(=O)NCc2ccccc2Cl)n(N)c1=O	-1%
CCCOc1ccc(N2C(=O)CC(NCCc3ccc(S(N)(=O)=O)cc3)C2=O)cc1 (stereo unspecified)	-6%
COc1ccc(C(=O)NCS(=O)(=O)c2ccc(C)cc2)cc1	-11%
O=C(NCCc1nc2ccccc2[nH]1)/C(=C/c1ccco1)NC(=O)c1ccc(Br)cc1	-1%
CCOc1cccc(CNCCNC(=O)c2nonc2N)c1	0%
O=[N+]([O-])c1cc(S(=O)(=O)Nc2ccccc2)ccc1N1CCN(c2ccc(O)cc2)CC1	-20%
Cc1cccc(OCCn2cc(/C=N/NC(=O)c3ccncc3)c3ccccc32)c1	-12%
O=C(COC(=O)c1ccc2c(c1)C(=O)N(CCc1ccccc1)C2=O)Nc1ccc(OC(F)F)cc1	-16%
CCOC(=O)CN(C(=O)CSc1nnc(CNc2ccc(F)cc2)n1C)c1ccccc1	0%
Cc1nn(C(C)C(=O)Nc2ccc(Cl)cn2)c(C)c1[N+](=O)[O-] (stereo unspecified)	-1%
C/C(=N\NC(=O)c1ccc(Cl)cc1)c1cccc(NC(=O)c2cccnc2)c1	-11%
COc1ccc(C)cc1S(=O)(=O)Nc1ccccc1C	-5%
Following part
SMILES	HPGD inh
Cc1ccc(NC(=O)CCNC(=O)c2ccccc2Cl)cc1S(=O)(=O)N(C)C	0%
CCCNC(=O)c1ccc(Cl)c(Cl)c1	-22%
CC(C)(C)c1ccc(-c2nc(C#N)c(NCc3cccnc3)o2)cc1	?
COc1ccc(Cl)cc1C(=O)CSc1nc(N)cc(N)n1	-6%
O=C1c2ccc(Oc3ccc4c(c3)C(=O)N(CCCCO)C4=O)cc2C(=O)N1CCCCO	-29%
CCOc1ccc(-n2cnnn2)cc1S(=O)(=O)N1CCCCC1	-9%
O=C(O)CSCC(=O)NCc1ccccc1	-4%
Cc1cc(C)cc(NC(=O)CSc2nnc(Cc3cccn3C)n2-c2ccc(F)cc2)c1	-8%
c1cc(-c2nc3cc(Cc4ccc5oc(-c6ccncc6)nc5c4)ccc3o2)ccn1	-3%
CN(C)c1ccc(/C=C(/NC(=O)c2ccccc2)C(=O)N/N=C/c2ccc([N+](=O)[O-])c(O)c2)cc1	16µM*
Cc1nc(N2CCN(C(=O)c3ccco3)CC2)c2oc3ccccc3c2n1	-19%
CC(C)[C@H](NS(=O)(=O)c1ccccc1)C(=O)OCn1nnc2ccccc2c1=O	-9%
CCOc1ccc(N(CC(=O)Nc2ccc(C)cc2)S(=O)(=O)c2c(C)noc2C)cc1	-6%
COc1ccc(-c2[nH]nc3c2C(c2ccccc2OC(=O)N2CCOCC2)C(C#N)=C(N)O3)cc1 (stereo unspecified)	5%
Cc1ccn2cc(CNC(=O)c3cccs3)nc2c1	-18%
O=C(CSc1nncc2ccccc12)N1CCOCC1	28µM*
O=C(c1csnn1)N1CCC[C@@]2(CCN(Cc3cc(C(F)(F)F)cc(C(F)(F)F)c3)C2)C1	-14%
COC(=O)c1ccc(C(=O)OC)c(NC(=O)Nc2ccc3c(c2)OCO3)c1	-10%
CN1CCN(C(=O)C2CC(c3c(F)cccc3Cl)=NO2)CC1 (stereo unspecified)	-17%
Cc1ccc(NC(=O)/C(=C/c2cccc([N+](=O)[O-])c2)NC(=O)C2CCCCC2)cc1	-4%
COC(=O)c1onc(-c2ccccc2)c1C(=O)OC	-7%
CS(=O)(=O)N1CCC[C@@]2(CCN(C(=O)Nc3ccccc3)C2)C1	-11%
COC(=O)[C@@]1(Cc2ccc(OC)cc2)[C@H]2c3cc(C(=O)N(C)C)n(C)c3C[C@H]2CN1C(=O)c1ccccc1	-10%
COc1ccc(NC(=O)CCCCC#Cc2ccccc2)cc1	-18%
Cc1ccc(Cn2cc(S(=O)(=O)c3ccc(Cl)cc3)c(=O)c3cc(F)ccc32)cc1	2%
C1CCN=C(Nc2nn[nH]n2)CC1	4%
Cn1c(=O)c2[nH]c(CCNC(=O)c3ccccc3)nc2n(C)c1=O	-23%
COc1ccccc1NC(=O)CN1CCN(CC(=O)Nc2ccc(Cl)c(C(F)(F)F)c2)CC1	-15%
COc1ccc(OC)c(-c2nc3cc4ccccc4cc3nc2-c2ccccc2)c1	-8%
Cc1ccc(-n2c(SCC(=O)N/N=C/C=C/c3ccccc3[N+](=O)[O-])nc3ccccc3c2=O)cc1	-4%
CCN(CCNC(=O)Nc1ccc(Cl)cc1)c1ccccc1	-15%
O=C(OCn1nnc2ccccc2c1=O)c1cc(-c2ccccc2)nc2ccccc12	?
CCOc1ccc(S(=O)(=O)N(C)c2ccc(OCC(=O)Nc3ccc4[nH]c(=O)[nH]c4c3)cc2)cc1	-20%
CC(NC(=O)COC(=O)Cn1cnc2ccccc2c1=O)C1CC2CCC1C2 (stereo unspecified)	-19%
CCc1cccc(NC(=O)CSC2=NS(=O)(=O)c3ccccc32)c1	22µM*
O=C(Cn1cnc2ccccc2c1=O)Nc1ccc(-c2nnc3n2CCCCC3)cc1	13µM*
COc1ccc2c(c1)N1CCN=C1N2C	-9%
C=CCOC(=O)/C(=C\c1cccc2ccccc12)NC(=O)c1ccccc1	-4%
Cc1nn2c(-c3ccncc3)nnc2c2ccccc12	?
O=C(O)CCCNC(=O)OCc1ccccc1	0%
COc1ccc(N2C(=O)CCC(C(=O)NCc3ccccn3)C2c2ccc(OC)c(OC)c2)cc1 (stereo unspecified)	-9%
NNC(=O)c1cccc(COc2ccccc2Br)c1	-4%
Cc1ccc(NC(=O)Cc2ccc([N+](=O)[O-])cc2)c(Br)c1	-9%
Cc1ccc(NC(=O)N2CCN(c3ccccn3)CC2)cc1	-23%
COc1ccc(N(CC(=O)NCc2ccccc2)S(=O)(=O)c2c(C)nn(C)c2C)cc1	0%
Cc1ccc(-c2noc(-c3ccccc3C(=O)NCC3CCCO3)n2)cc1 (stereo unspecified)	-7%
CC(C)(C)OC(=O)N[C@@H](Cc1ccccc1)c1nnc(S(=O)(=O)Cc2ccccc2)o1	3.5µM*
CCOC(=O)C1=NN(C(=O)c2ccc(C)cc2)C(O)(c2ccc(Cl)cc2)C1 (stereo unspecified)	-15%
CC(C)(C)c1nn(-c2ccccc2)c2[nH]c(=O)c(CNc3ccc4c(c3)OCCO4)cc12	-13%
COc1ccc(C(=O)/C=C/Nc2ccccn2)cc1	?
Additional entries
SMILES	HPGD inh
CCCSc1nc(C)cc(C)c1S(=O)(=O)c1ccccc1C	-26%
CC1Cc2nc(SCC(=O)Nc3ccc4c(c3)OCO4)n(Cc3ccccc3)c(=O)c2S1 (stereo unspecified)	-26%
COc1cccc(-c2nnc(-c3ccc(C)o3)o2)c1	?
CSc1nnc(SC)nn1	-6%
Cc1cc2nncn2c(Cc2ccccc2)n1	-7%
CCOC(=O)C1CCN(Cc2ccc(OC)c(C)c2OC)CC1	1%
O=C(CSc1nc2ccccc2s1)CSc1nc2ccccc2s1	-14%
Cc1cc(C)c(C(=O)C2OC(=O)C(C)(C)C(=O)C2(C)C)c(C)c1 (stereo unspecified)	-10%
COc1cc(OC)c2c(-c3cccc(-c4ccc(C(C)=O)cc4)c3)cc(=O)oc2c1	?
CCn1c(=O)cc(OCC(=O)NCc2ccc(C)o2)c2ccccc21	?
O=C(Nc1cccc(-c2cn3ccccc3n2)c1)C1CC1	?
O=C(NCCCn1ccnc1)c1ccc(Br)o1	-23%
CCOC(=O)CS(=O)(=O)c1ccccc1	-6%
CC(C)CN(CC(C)C)C(=O)C12CCC(C)(C(=O)O1)C2(C)C (stereo unspecified)	-12%
c1cncc(-c2noc(CC3CCCCC3)n2)c1	-2%
O=[N+]([O-])c1ccc(N2CCCCC2)cc1NCCOc1ccccc1	-8%
Cc1ccc(NS(=O)(=O)c2cc(C(=O)O)ccc2Cl)cc1	0%
Cc1cccc(N2CCN(c3ccc(NC(=O)/C=C(/C(=O)O)c4ccccc4)cc3)CC2)c1	-6%
Cc1cc(C(=O)OCC(=O)c2ccc3c(c2)NC(=O)CO3)c2ccccc2n1	-18%
Cc1c(C(=O)NC(C)C)sc2ncn(CC(=O)N3CCC(C)CC3)c(=O)c12	-9%
CS(=O)(=O)N(Cc1ccccc1)c1ccc(C(=O)Nc2ccccc2Sc2ccccc2)cc1	?
CC(=O)C1(O)C(C)CC2C3CCC4CC(O)CCC4(C)C3=CCC21C (stereo unspecified)	-9%
Cc1cc(C)cc(-n2nc(C)cc2N)c1	-16%
COC(=O)c1cc(-c2c(C)oc3cc(OC)ccc3c2=O)c(C)o1	-7%
CC1=CC(C)(C)Nc2ccc(OC(=O)CCN3C(=O)c4ccccc4C3=O)cc21	-6%
O=C(O)C1C2C=CC(C2)C1C(=O)NC1CCN(Cc2ccccc2)CC1 (stereo unspecified)	2%
Cc1c(Br)c(C(F)(F)F)nn1CC(=O)N1CCCC1	-13%
O=C(Cn1cc2c(n1)CCCC2)NCCCN1CCCC1	-7%
OC(COCC1COc2ccccc2O1)CN1CCN(c2ccc(F)cc2)CC1 (stereo unspecified)	-7%
CCOC(=O)c1cn(-c2ccccc2)nc1-c1cccnc1	-6%
